Screening data deposited in PubChem BioAssay by Southern Research Institute.
Mtb growth = Mycobacterium tuberculosis H37Rv growth inhibition, cell based, confirmatory dose response (AID 1949); M. tuberculosis H37Rv growth inhibition; most inactive calls were filed without a number and no value below 0 was filed; one-dose inhibition, % at 10 µg/mL; IC50 in µg/mL for titrated hits; 1.6% of 100,000 active;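 active = confirmed in a dose series; inconclusive = about 50% or more but not retested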;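 note: bacteria grown 7 days with compound before Alamar blue readout; 0% = untreated bacteria and 100% = reference antibiotic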
An asterisk follows results filed as active; i = inactive; ? = inconclusive. Only part of the results is shown; count on the stated rates, not on these rows.

SMILES	Mtb growth
O=C(CC(O)(C(F)(F)F)C(F)(F)F)Nc1ccccc1I	1.3%
Cc1ccc(C(=O)Nc2cccc3c2CCCC3)cc1Cl	0.7%
CCc1cc(OCCNCc2ccccc2)ccc1Cl	i
CCOC(=O)c1c(NC(=O)c2csc(C)c2)sc(C(C)=O)c1C	i
Cn1c(CNC(=O)c2ccco2)nnc1SCC(=O)Nc1ccc(I)cc1	i
O=C1CC(Cc2ccccc2)C(=O)N1c1cccc(C(F)(F)F)c1 (centres undefined)	i
CCn1c(Cc2ccccc2)nnc1SCC(=O)Nc1ccccc1Br	i
Cc1cccc(S(=O)(=O)N2CCN(C(c3ccccc3)c3ccccc3)CC2)c1	13.8%
C=CCN(CC=C)CCOc1cccc(OC)c1	i
CCOC(=O)c1ccc(NC(=O)c2cnn(-c3ccccc3Cl)c2NC(=O)c2cccs2)cc1	i
O=C(CCN1Cc2ccccc2C1)c1ccc2c(c1)OCCO2	i
COc1ccc(CNc2nc3ccccc3n2C(C)C)cc1	1.7%

A draw from above in order of length of the SMILES, smallest number first:
SMILES	Mtb growth
C=CCN(CC=C)CCOc1cccc(OC)c1	i
Cc1ccc(C(=O)Nc2cccc3c2CCCC3)cc1Cl	0.7%
O=C(CCN1Cc2ccccc2C1)c1ccc2c(c1)OCCO2	i
Cc1cccc(S(=O)(=O)N2CCN(C(c3ccccc3)c3ccccc3)CC2)c1	13.8%

Molecules shown so far with sulfur:
SMILES	Mtb growth
CCOC(=O)c1c(NC(=O)c2csc(C)c2)sc(C(C)=O)c1C	i
Cn1c(CNC(=O)c2ccco2)nnc1SCC(=O)Nc1ccc(I)cc1	i
CCn1c(Cc2ccccc2)nnc1SCC(=O)Nc1ccccc1Br	i
Cc1cccc(S(=O)(=O)N2CCN(C(c3ccccc3)c3ccccc3)CC2)c1	13.8%
CCOC(=O)c1ccc(NC(=O)c2cnn(-c3ccccc3Cl)c2NC(=O)c2cccs2)cc1	i

Other structures.
SMILES	Mtb growth
COc1ccc(NC(=S)N2CC(C)OC(C)C2)cc1OC (centres undefined)	3.5%
O=C1C2C3C=CC(C3=C(c3ccccc3)c3ccccc3)C2C(=O)N1Cc1ccco1 (centres undefined)	9.4%
O=C(c1ccncc1)N1CCN(Cc2cccc(Oc3ccccc3)c2)CC1	i
CN(Cc1ccccc1)C(=S)NC(=O)c1ccc(C(C)(C)C)c(Br)c1	?
O=C(Nc1ccccc1C(=O)N1CCCCC1)c1ccc(Cl)cc1	i
O=C(O)c1cn(-c2ccccc2)nc1-c1cccnc1	i
Cn1cnc2cc(NCc3ccccc3O)ccc21	i
O=C(O)CCc1nn2c3ccccc3nc2n(-c2ccccc2)c1=O	i
Cc1ccc(NC(=O)Cn2cnc3c(=O)n(C)c(=O)n(C)c32)c(C)c1	i
CCc1ccc(CNCCNCC(C)O)cc1 (centres undefined)	i
COc1cc(CCN2C(=O)c3cccc4cccc(c34)C2=O)c(S(=O)(=O)NCc2cccnc2)cc1OC	i
Cc1cccc2c1N(CCOc1ccc(C(C)(C)C)cc1)C(=O)C2=O	i
N#Cc1c(NC(=O)COc2ccc(C(=O)NC3CCCCC3)cc2)sc2c1CCC2	i
O=C(O)C1C2C=CC(C2)C1C(=O)NCCCn1ccnc1 (centres undefined)	0.8%
COc1cc(C2NC(=S)NC(C)=C2C(=O)Nc2ccccc2)cc(Cl)c1OC (centres undefined)	i
Cc1nn(C)cc1CNC(=O)Nc1ccc(Cl)c(Cl)c1	i
CC(Oc1ccc(C(C)(C)C)cc1)C(=O)O/N=C(\N)c1ccc(Cl)cc1 (centres undefined)	i
O=c1c2ccccc2nnn1Cc1ccc(-c2cnc3ccccc3n2)cc1	i
COc1ccc(S(=O)(=O)N2CCN(c3ccccc3Cl)CC2)c2ccccc12	4.8%
CC(NC(=O)C1CCCC1)c1ccccc1 (centres undefined)	i
CCC(CC)c1nnc(NC(=O)CSc2ccccc2)s1	i
Cc1cc(C(=O)Nc2ccc3c(c2)OCCO3)c(C)o1	i
COc1ccc(-c2cccc(C(N)=O)c2)cc1	i
COc1ccc(N(C(C)C(=O)Nc2ccccc2C(=O)NC2CCCCC2)S(C)(=O)=O)cc1 (centres undefined)	i

Brought forward from above: 4 entries; new compounds follow.
SMILES	Mtb growth
CCC(CC)c1nnc(NC(=O)CSc2ccccc2)s1	i
Cc1cc(C(=O)Nc2ccc3c(c2)OCCO3)c(C)o1	i
COc1ccc(-c2cccc(C(N)=O)c2)cc1	i
COc1ccc(N(C(C)C(=O)Nc2ccccc2C(=O)NC2CCCCC2)S(C)(=O)=O)cc1 (centres undefined)	i
O=C(NCc1cccs1)c1ccc(C(=O)NCc2cccs2)nc1	i
C=CCc1ccccc1OCCCCN1CC(C)OC(C)C1 (centres undefined)	i
Cc1cc(I)ccc1NC(=O)CN(c1cccc(C(F)(F)F)c1)S(C)(=O)=O	i
COc1ccc(C(=O)c2c(C(F)(F)F)oc3c2C(=O)c2ccccc2C3=O)cc1OC	40.3%
Cc1cc(Nc2ccc(N(C)C)cc2)c2cccc(C)c2n1	4.43µg/mL*
Cc1ccc(-c2nn3c(C)nnc3s2)cc1NC(=O)c1cc2ccccc2o1	i
Cc1onc(-c2ccccc2Cl)c1C(=O)NCCNC(=O)c1c(-c2ccccc2Cl)noc1C	i
COc1ccccc1C(=O)Nc1ccccc1NC(=O)c1ccccc1OC	i
CC(=O)Nc1ccccc1-c1nc2ccccc2nc1OCc1ccc(C(=O)OC(C)C)cc1	i
COC(=O)c1ccccc1NC(=O)CSc1n[nH]c(-c2ccco2)n1	i
CCCC(NC(=O)OCc1ccccc1)C(=O)Oc1ccc2c(c1)oc(=O)c1ccccc12 (centres undefined)	i
Cc1ccc(S(=O)(=O)Nc2ccc3[nH]c(=O)[nH]c3c2)cc1C	i
Cc1cccc(C(=O)NC(=S)Nc2ccc(S(=O)(=O)Nc3nccs3)cc2)c1	i
COc1ccc(Cl)cc1C(=O)Nc1ncn[nH]1	i
CC(SCc1ccccc1)C(=O)Nc1c(F)cccc1F (centres undefined)	i
C=CCN1C(=S)N(c2ccc(C(=O)OCC)cc2)C(=O)C1CC(=O)Nc1ccc(OCC)cc1 (centres undefined)	i
O=C(c1cn(-c2ccccc2)nc1-c1cccc([N+](=O)[O-])c1)N1CCCCC1	8.9%
O=C(CSc1nnc2ccccn12)Nc1c(Cl)cc(Cl)cc1Cl	i
CCCC(=O)NC(c1cccs1)c1cc(Cl)c2cccnc2c1O (centres undefined)	i
O=C(NC1CCS(=O)(=O)C1)c1ccc(S(=O)(=O)NCC2CCCO2)cc1 (centres undefined)	i
COc1ccccc1NC(=O)c1sc2ncn(CC(=O)Nc3cc(Cl)ccc3Cl)c(=O)c2c1C	30.1%
Cc1ccc(C(=O)NC(=S)Nc2ccc3oc(-c4ccc(F)cc4Cl)nc3c2)c(C)c1	i
CC(C)(C)CC(=O)NC(c1ccccc1)c1ccccc1	i
COc1ccc(CNC(=S)Nc2ccc(F)c(Cl)c2)cc1OC	2.2%
CC(=O)c1ccc(NS(=O)(=O)c2ccc(Br)s2)cc1	i
COc1ccc(C(=O)Nc2sc3c(c2C(=O)OC(C)C)CCCCC3)cc1OC	i
Cc1nc(Nc2ccccc2)[nH]c(=O)c1CCC(C)C	i
Cc1occc1C(=O)Nc1nc2ccc([N+](=O)[O-])cc2s1	i
CCOc1ccc(C(C)NC(=O)c2ccccc2Br)cc1 (centres undefined)	4.3%
CC(Nc1ccc(Br)cn1)c1cc(Cl)ccc1O (centres undefined)	i
Cc1ccc(C)n1-c1ccc(NC2CCCC2)c([N+](=O)[O-])c1	i
C=CCn1c(SCC(=O)Nc2cc(Cl)ccc2OC)nnc1-c1ccc(OC)cc1	i
O=C(CN1C(=O)C2CCCCC2C1=O)N1CCN(C(c2ccccc2)c2ccccc2)CC1 (centres undefined)	i
O=C(O)c1cc(-c2ccc(F)cc2)nc2ccc(Br)cc12	0.3%
O=C(CN(c1ccccc1F)S(=O)(=O)c1ccccc1)NC1CC2CCC1C2 (centres undefined)	i
CCc1cccc(OCCOCCN2CCCC2)c1	i
O=C(COc1ccc(C(=O)NC2CCCCC2)cc1)Nc1ccccc1F	i
COc1ccc(S(=O)(=O)Nc2ccc(Br)cc2F)cc1C	i
COc1ccc(CCC(=O)NCc2cnn(C)c2)cc1	i
Cc1cccc(C)c1NC(=O)C1CCN(C(=O)c2ccc(Cl)cc2)CC1	i
COc1cc(C2CC(=O)NC(SCC(=O)Nc3nccs3)=C2C#N)cc(OC)c1OC (centres undefined)	i
COc1ccc(S(=O)(=O)N2CCCC2C(=O)Nc2nc3c(s2)CCCC3)cc1 (centres undefined)	i
COc1cc(C2NC(=S)NC3=C2C(=O)CCC3)ccc1OCC(=O)Nc1ccccc1C (centres undefined)	i
COC(=O)c1ccc(NC(=O)CSc2nc(C)c(C)c(=O)[nH]2)cc1	i
CCCCNC(=O)c1ccccc1NS(=O)(=O)c1ccc(F)cc1	i
CCOc1ccccc1CNC(=O)c1cccc(COc2ccc(Br)cc2)c1	i
COc1ccc(NC(=S)Nc2c(C)cccc2C)cc1	i
O=C(Oc1ccc([N+](=O)[O-])cc1)c1cc2cc(Br)ccc2oc1=O	0.4%
CNc1cc(N2CCN(C(=O)c3ccccc3)CC2)ccc1[N+](=O)[O-]	i
Clc1ccc(CN2COc3cc4c(cc3C2)OCO4)cc1	i
COc1ccc(CNCc2cc(C)c(OC)cc2C)c(OC)c1	i
CCc1ccccc1N(CC(=O)Nc1ccc(F)cc1F)S(C)(=O)=O	14.2%
Cn1nnc2cc(C(=O)Nc3cccnc3)ccc21	i
Cc1c(NC(=O)c2cccc(NC(=O)c3ccco3)c2)cccc1C(=O)O	i
Cc1ccccc1Nc1nc(Cl)nc(N2CCOCC2)n1	i
Nc1nnc(SCC(=O)Nc2ccccc2N2CCOCC2)s1	i
O=c1nc(NCc2ccco2)sc2ncccc12	i
C=CCc1ccc(OCCOc2ccccc2Cl)c(OC)c1	i
COC(=O)COc1ccc(NC(=O)COc2ccc(C(C)(C)C)cc2)cc1	0.17µg/mL*
O=c1[nH]c2ccc(NCc3ccc4c(c3)OCO4)cc2[nH]1	i

(continued)
SMILES	Mtb growth
CCOC(=O)c1ccc(NC(=O)COc2cccc3ccccc23)cc1	i
O=C(c1cc2ccccc2oc1=O)N1CCN(S(=O)(=O)c2cccs2)CC1	i
CCN(C(=O)CSc1nc2sc(C)c(C)c2c(=O)n1-c1ccccc1)c1ccccc1	i
CSc1ccc(Cl)c(C(=O)NCC(C)C)c1	i
Nc1ccc(C(=O)c2ccc3c(c2)OCCO3)cc1N	i
CCn1c(SCC(=O)N2CCN(c3ccccc3)CC2)nnc1C(NC(=O)c1ccc(Cl)cc1Cl)C(C)C (centres undefined)	i
COc1ccccc1N1CCN(c2cc(N3CCNCC3)ccc2[N+](=O)[O-])CC1	i
CCOC(=O)c1c(NC(=O)c2cccc(OC)c2)sc(C(=O)OC(C)(C)C)c1C	i
Fc1ccc(CSc2nnc(-c3cccc(Br)c3)n2-c2ccccc2)cc1	1.9%
S=C(NCc1ccccc1)N1N=C(c2ccc(Br)cc2)CC1c1ccco1 (centres undefined)	6.1%
O=C(NCc1ccc(Cl)cc1Cl)c1ccc(Br)cc1	i
Cn1c(=O)c2c(nc(SCC(=O)NC3CCCCC3)n2C)n(C)c1=O	i
COC(=O)Cc1cc(=O)[nH]c(/N=C(\N)Nc2ccccc2OC)n1	i
O=C(CSc1nnc2sc3ccccc3n12)Nc1c(Cl)cccc1Cl	i
CCOc1ccc(NC(=O)CCn2cnc3ccccc3c2=O)cc1	i
O=C(O)C1C2C=CC(O2)C1C(=O)N1CCN(c2ccccc2)CC1 (centres undefined)	i
O=C(/C=C/c1ccccc1)Nc1nc2ccc(Br)cc2s1	i
COc1ccc(OC)c(C2C(C(=O)OCc3ccccc3)=C(C)Nc3ncnn32)c1 (centres undefined)	i
O=C(c1ccc2c(c1)C1C=CCC1C(c1ccc([N+](=O)[O-])cc1)N2)N1CCCCC1 (centres undefined)	i
O=C(Nc1cccc(C(F)(F)F)c1)c1cc(-c2ccccc2)on1	i
CN(c1cccc(NC(=O)CSc2ccc(Cl)cc2)c1)S(C)(=O)=O	1.6%
CNC(=O)c1cc(Nc2nnc(-c3ccc(C)c(S(N)(=O)=O)c3)c3ccccc23)ccc1OC	i
CCOC(=O)C1CCCN(C(=S)Nc2cccc(Cl)c2C)C1 (centres undefined)	i
COc1ccccc1CSc1nc2ccccc2s1	i
COCCCNC(=S)NNC(=O)c1csc2ccccc12	i
Cc1cc(C)cc(N(CC(=O)N2CCc3ccccc3C2)S(C)(=O)=O)c1	i
CC(C)c1ccc(NS(=O)(=O)c2ccc3c(c2)OCCO3)cc1	4.0%
Clc1ccc(CSc2nc3ccccc3[nH]2)cc1	i
Cc1ccc(Oc2coc3cc(OCc4ccc([N+](=O)[O-])cc4)ccc3c2=O)cc1	i
COC(=O)C1=C(C)NC2=C(C(=O)CC(c3cccs3)C2)C1c1cc(F)ccc1F (centres undefined)	31.9%
CC(=O)Nc1ccc(OCc2cccc([N+](=O)[O-])c2)cc1	i
O=C(CN1C(=O)c2ccccc2S1(=O)=O)Nc1cccc(F)c1	2.9%
Cc1cccc(NC(c2ccc(C)s2)c2ccc3ccc(C)nc3c2O)n1 (centres undefined)	25.4%
CCc1cccc2c(C#N)cn(CC(=O)NC3CCCC3)c12	i
O=C(Nc1ccc(I)cc1C(=O)N1CCOCC1)c1cccc2ccccc12	i
CCN(CC)C(=O)c1sc(NC(=O)c2cccc(Cl)c2)c(C#N)c1C	i
O=C(O)C1CCCN1S(=O)(=O)c1ccc2[nH]c(=O)c(=O)[nH]c2c1 (centres undefined)	i
O=C(c1cccs1)N1CCC(c2ccccc2)C1 (centres undefined)	i
